Screening results from PubChem.
VACV Venus inh: inhibitors of vaccinia virus (Venus reporter) | Vaccinia virus Venus reporter expression, fluorescence | Potency, µM (highest dose often 36.5 µM), inactives show top-dose activity change, negative = inhibition, most hits filed as inhibitors | hit rate 0.46% among 330,000; active means well fitted inhibition curve with a large enough effect; inconclusive means small, poorly fitted or top-dose-only effect; inactive means no such curve, though single readings can be large or run the other way; tested in A549 cells; note: nearly all actives have a fitted effect of over 30% in size; inactives centre near -10
VACV mCherry inh: vaccinia inhibition (mCherry reporter); hit rate 0.63% among 310,000; Potency, µM (doses to about 36.5 µM), inactives show at the top dose activity change, negative = inhibition, hits mostly inhibitors; Vaccinia virus mCherry reporter infection, fluorescence; about a quarter of the inactives have no number; AID 720579; active = well fitted inhibition curve with a large enough effect; inconclusive = small, poorly fitted or top-dose-only effect; inactive = no such curve, though single readings can be large or run the other way; tested in A549 cells; note: nearly all actives have a fitted effect of over 35% in size; inactives centre near -10
An asterisk follows results filed as active; i = inactive; ? = inconclusive; · = not tested or not shown; & = joins results of further samples; [ ] = dose if it differs, or a comment. % is set by controls: 0 for no effect and ±100 for the full control effect; potency is the fitted concentration of half-maximal effect.

SMILES	VACV Venus inh	VACV mCherry inh
CC1CC1C(=O)N1CCN(S(=O)(=O)c2cccc(F)c2)CC1 (stereo unspecified)	-16.7%	-6.2%
CC(C)NC(=O)c1ccc2c(c1)nnn2C	-2.4%	-11.7%
CCc1c(C)nc2nncn2c1Nc1cccc(C)c1	-9.8%	-9.0%
Cc1cc(Nc2ncc(Cl)cc2Cl)n(-c2ccccc2)n1	-12.3%	-11.2%
COc1cc(CNc2ccccc2)c([N+](=O)[O-])cc1OC	-19.3%	-0.1%
COc1ccc(/C=C(\C#N)c2cc(OC)c(OC)cc2[N+](=O)[O-])cc1	-5.0%	i
CCOC(=O)c1c(C)oc2nc(C)nc(NCc3ccccc3OCC)c12	-8.5%	-4.2%
CC(C)[C@H](NC(=O)c1ccccc1)C(=O)Nc1cccc(S(=O)(=O)N2CCOCC2)c1	-5.6%	i
COc1ccc(N2CCN(C(=O)C3COc4ccccc4O3)CC2)cc1 (stereo unspecified)	-9.5%	i
CCC(C)(C(=O)NC1CCCC1)N(C(=O)Cc1cccs1)c1c(C)n(C)n(-c2ccccc2)c1=O (stereo unspecified)	-3.4%	i
CCOc1ccc2nc(N3CCC(C(=O)N4CCN(c5ncccn5)CC4)CC3)sc2c1	?	-0.7%
CC(c1nnnn1C(C)(C)C)N(Cc1cccnc1)Cc1ccccc1Cl (stereo unspecified)	-22.3%	?
O=C(NCc1ccccc1)C(C1CC1)n1c(=O)c(-c2ccco2)nc2ccccc21 (stereo unspecified)	4.0%	18.3%
COc1cc([N+](=O)[O-])c2nc(C=NNC(N)=S)ccc2c1	-19.5%	-11.5%
Cc1onc(-c2ccccc2)c1-c1n[nH]c(=S)n1-c1ccc(C(=O)O)cc1	-15.0%	-17.1%[1.46 µM]
Cc1cccnc1NC(=O)C1CCCN(S(=O)(=O)c2ccc3c(c2)oc(=O)n3C)C1 (stereo unspecified)	-3.8%	-16.9%
CCOc1ccc(N2C(=O)N(Cc3c(F)cccc3Cl)c3ccccc3S2(=O)=O)cc1	-6.3%	-11.5%
COc1ccc(CCC(=O)NCCS(=O)(=O)N2CCN(c3ccccc3F)CC2)cc1	?	-13.9%
O=C(O)c1cn2c3c(ccc(Cl)c3c1=O)OCC2	-7.4%	-8.7%
CCCCCCCCCC(=O)NNC(=O)c1c(O)c2ccccc2n(CCC)c1=O	-7.3%	1.5%
CC(C)CCNC1=NCCCCC1	5.9%	-12.0%
CCCCOc1ccc(C(=O)N/C(=C/C=C/c2ccccc2)C(=O)N2CCOCC2)cc1	-21.9%	-14.7%
CC1CCN(S(=O)(=O)c2ccc3ncn(CC(=O)N(C)C4CCCCC4)c(=O)c3c2)CC1	-10.0%	-10.5%
Cc1ccc(-n2c(SCn3nnc4ccccc4c3=O)nnc2-c2cccnc2)c(C)c1	-10.8%	-19.6%
CC(=O)c1cccc(NC(=O)Cn2cc(C(=O)c3cccc(Cl)c3)c(=O)c3ccc(C)nc32)c1	-2.4%	3.0%
O=C(Cc1cccs1)NCCS(=O)(=O)N1CCN(c2ccccc2F)CC1	?	?
COc1ccc(-c2ccc(SCC(=O)Nc3nccs3)nn2)cc1OC	-14.2%	-1.4%
O=C(c1cc(C2CC2)nn1-c1ccccc1)N1CCN(Cc2ccccc2)CC1	-8.1%	-2.8%
CN(CCOc1ccccc1)CC(=O)Nc1ccc(Cl)cc1[N+](=O)[O-]	-0.9%	i
O=C(CCNS(=O)(=O)c1ccccc1)NCC1CCCCC1	-13.0%	-3.9%
CCC(Cc1ccccc1)NC(=O)c1cc(S(=O)(=O)N2CCCCC2)c[nH]1 (stereo unspecified)	-21.5%	?
C#Cc1cccc(C(=O)N2CCCC(C(=O)c3ccc(OC)cc3C)C2)c1 (stereo unspecified)	-10.8%	-10.1%
CCC(NC(=O)C1CCCO1)c1ccccc1 (stereo unspecified)	-5.6%	-12.9%
COC(=O)CC1C(C)(C)C(O)C2CC3=C4C=C(OC)OC(c5ccoc5)[C@]4(C)CCC3[C@@]1(C)C2=O (stereo partly specified)	-18.9%	i
COc1ccc(-n2c(O)c(C=NCc3ccccn3)c3ccccc3c2=O)c(OC)c1	-25.3%	-23.4%
CC1=C(C(=O)N(C)C)CC(CC(=O)NCc2cccc3ccccc23)C(=O)N1Cc1ccc(F)cc1 (stereo unspecified)	-16.1%	15.7%
CC(C)NC(=O)C1(C)CCCN1Cc1ccccc1 (stereo unspecified)	3.2%	i
Cc1ccsc1/C=N/n1c(-c2ccncc2)n[nH]c1=S	-8.1%	-7.8%
O=C(COc1ccccc1)Nc1ccccc1Oc1ccccc1	-4.7%	-14.8%
CN1[C@@H]2CC[C@H]1CC(OC(=O)C(CO)c1ccccc1)C2 (stereo partly specified)	-25.5%	i
CC(=O)Nc1ccccc1OCc1nnc(-c2ccc(Cl)cc2)o1	-14.4%	-10.3%
O=C(Nc1ccc2c(c1)OCO2)O[C@@H]1C[C@H]2CCC(=O)N3CC[C@@H](C1)[C@@H]23	0.7%&-6.7%	-10.6%&-13.9%
Cc1ccc(OCCSc2nc3ccc(NC(=O)c4cccs4)cc3s2)cc1	-17.5%	-2.6%
CCCCN(CCCC)C(=O)C1CC=CCC1C(=O)O (stereo unspecified)	2.0%	-0.5%
O=C(CNc1ccc2ccccc2c1)N/N=C/c1ccc(C(=O)O)cc1	-15.7%	-23.6%
COCCN1C(=O)C(O)=C(C(=O)c2cccs2)C1c1ccccc1 (stereo unspecified)	1.7%	-9.7%
COc1ccc(S(=O)(=O)Nc2ccccc2N2CCOCC2)cc1OC	-11.6%	-20.5%
CCOC(=O)CCSCC(=O)Nc1nnc(C)s1	-14.4%	i
Cn1c(-c2ccccc2)cc(=O)c2ccccc21	-22.9%	-24.7%
CN(c1ccc(OCC(=O)OCC(=O)Nc2ccc([N+](=O)[O-])cc2)cc1)S(=O)(=O)c1cccs1	-7.3%	-15.2%
Cc1ccc(-c2cc(C(F)(F)F)n3ncc(-c4ccc(Cl)cc4)c3n2)cc1	-1.9%	-2.7%
Cc1cc([N+](=O)[O-])c(C(C)(C)C)cc1N	-23.4%	·
CCOc1ccc(NC(=O)CSc2n[nH]c(N)n2)c([N+](=O)[O-])c1	-8.0%	-11.5%
Cc1ccc(C(=O)NNC(=O)c2cc3cc4ccccc4nc3s2)cc1	-22.2%	-13.7%
CN(C)/C=N/C(=S)Nc1ccccc1Cl	-0.7%	-6.2%
Cn1c(SCc2nnc(-c3ccccc3)o2)nc2ccccc21	-6.7%	-13.3%
CN(Cc1ccccc1)C(=O)c1ccccc1N(C)S(=O)(=O)c1ccccc1	-11.3%	-3.9%
COc1ccccc1NC(=O)c1ccccc1NC(=O)c1ccccc1	?	?
C#CCOCCOCCOCCNc1nc(N2CCN(C(=O)[C@H](CCCCN)n3cc([C@@H](N)CC(C)C)nn3)CC2)nc(N2CCN(C(=O)[C@H](Cc3cc4ccccc4[nH]3)n3cc([C@@H](N)Cc4ccc(O)cc4)nn3)CC2)n1	-12.4%	-18.5%
COc1cc(C=O)ccc1OCC(=O)N1CCCC1	-1.8%	-10.0%

Reprinted at random: 2 entries already listed.
SMILES	VACV Venus inh	VACV mCherry inh
COc1ccccc1NC(=O)c1ccccc1NC(=O)c1ccccc1	?	?
COc1cc(C=O)ccc1OCC(=O)N1CCCC1	-1.8%	-10.0%

Additional structures follow:
SMILES	VACV Venus inh	VACV mCherry inh
Cc1ccccc1C(=O)Nc1ccc(N2CCN(C)CC2)nc1	-14.1%	i
COc1ccccc1NC(=O)Nc1nc2ccc(S(N)(=O)=O)cc2s1	4.7%	-3.0%
Cc1ccc(-n2nc3ccc(NC(=O)c4oc5ccc(C)cc5c4C)cc3n2)cc1	-5.0%	-0.9%
O=C(/C=C/c1ccc(F)cc1)c1ccccc1Br	28.2µM*	?
CN=c1scc(C)n1/N=C/c1ccc(O)c(O)c1O	7.0%	-14.0%
CCCCn1c(=O)c(C(=O)Nc2ccccc2F)c(O)c2ccccc21	0.9%	i
Fc1ccc2cc(-c3ccsc3)ncc2c1	2.9%	-3.7%
COc1ccc(/C(N)=N/OC(=O)Cc2ccccc2)cc1	-8.0%	i
COc1ccc(-c2cc(CC3(C(=O)O)CCN(C(=O)OC(C)(C)C)CC3)on2)c(OC)c1	-19.6%	-13.5%
O=C(O)c1ccc(-n2ncc3c2/C(=C\c2cccc([N+](=O)[O-])c2)CC3)cc1	-22.6%	-19.8%
CCC(=O)N1CCN(c2ccc(Cl)cc2NC(=O)c2ccc([N+](=O)[O-])o2)CC1	?	?
CC(C)c1ccc(C2c3[nH]c4ccccc4c3C[C@H]3C(=O)N(c4ccccc4C(=O)N4CCC[C@H]4C(=O)O)C(=O)N23)cc1 (stereo partly specified)	2.8%	0.0%
O=C(NCC1=C(c2cccc3ccccc23)C[C@@H]2CC[C@H]1N2Cc1ccco1)c1cccnc1	-17.4%	-9.7%
CCO[C@H]1OC(C(=O)NCc2ccccc2)=C[C@@H](C2CC2)[C@@H]1CCCO	-10.7%	i
Cc1ccc(CNC(=O)CN(c2ccc(C)cc2)S(=O)(=O)c2c(C)n[nH]c2C)cc1	2.3%[7.34 µM]	i[7.34 µM]

Complete entries as entered above.
CCCCn1c(=O)c(C(=O)Nc2ccccc2F)c(O)c2ccccc21 in the list: VACV Venus inh = 0.9%; VACV mCherry inh = i
CN=c1scc(C)n1/N=C/c1ccc(O)c(O)c1O in the list: VACV Venus inh = 7.0%; VACV mCherry inh = -14.0%

The list goes on.
SMILES	VACV Venus inh	VACV mCherry inh
CCN1CCN(CCNC(=O)Cn2c(=O)c3cccn3c3ccc(F)cc32)CC1	3.4%	i
Cc1ccccc1C(=O)Nc1ccnn1C1CCN(Cc2ccc(CO)o2)CC1	-14.9%[7.34 µM]	i[7.34 µM]
COc1ccc(-c2n[nH]c(=S)n2Cc2ccccc2)cc1	-14.3%	-24.5%
COc1ccc(C(=O)NCc2ccc3c(c2)CCN3C(=O)c2ccncc2)cc1	-15.2%	-17.1%
CCN=C1S/C(=C/c2ccc(-c3ccc(F)cc3)o2)C(=O)N1CC	0.4%	-0.6%
O=C(C1CCCCC1)N1CCC2CC1c1cc(N3CCCCC3)ccc12 (stereo unspecified)	-9.0%	i
CCC(=O)N1CCC1(C)C(=O)NCc1ccccc1SC (stereo unspecified)	-3.0%	32.1%[activator]
Cc1ccccc1CN1C(=O)C(O)(CC(=O)c2cccc(Br)c2)c2ccccc21 (stereo unspecified)	-10.7%[7.34 µM]	-11.0%[7.34 µM]
CCc1cc(CNC(=O)C2CCC(=O)N(Cc3ccccc3F)C2)on1 (stereo unspecified)	-13.8%	i
O=[N+]([O-])c1ccc(/C=N\N2CCN(Cc3ccccc3Cl)CC2)cc1	-10.8%	?
O=C(NC1CCCC1)C(c1ccccn1)N(C(=O)c1csnn1)c1ccc(F)cc1 (stereo unspecified)	2.0%	-8.5%
Cc1cc2nn(-c3ccccc3)nc2cc1NC(=O)COc1ccc(Cl)cc1	7.3%	-6.8%
O=C(NC(=S)N1CCCCCC1)c1ccccc1Cl	-16.3%	-14.7%
COc1ccc(-c2csc(NC(=O)C3COc4ccccc4O3)n2)cc1OC (stereo unspecified)	-19.3%	-36.8%
O=C(COC(=O)c1ccccc1NCCO)Nc1cc(C(F)(F)F)ccc1N1CCOCC1	-11.5%	-24.6%
CCCS(=O)(=O)NC(=O)C1(C)CCCN(C(=O)COc2ccc(Cl)cc2Cl)C1 (stereo unspecified)	1.6%	-14.2%
COc1ccc(S(=O)(=O)Oc2c(OC)cc(C(=S)N3CCOCC3)cc2OC)cc1	-8.0%	-5.3%
Cc1ccc(NC(=O)Cc2nnc(SCC(=O)NC3CCCC3)n2C)cc1	-4.9%	i
O=[N+]([O-])c1c(Nc2ccc(O)cc2)cc(Cl)c2nonc12	?	?
CCn1cc(C2C(C(=O)Nc3cc(C)ccn3)=C(C)NC3=C2C(=O)CC(C)(C)C3)c(C)n1 (stereo unspecified)	-0.8%	i
O=C(CCc1ccccc1)OCCOC(=O)CCc1ccccc1	-1.9%	6.6%
O=C(Nc1nnc([C@@H]2C[C@H](O)[C@@H](CO)O2)s1)c1cccs1	-1.0%	i
Cc1c(-c2c(C#N)c(N)nc3c2CCCCCC3)cnn1C	-1.4%	-12.1%
N#CC1(C#N)[C@@H](C(=O)C23CC4CC(CC(C4)C2)C3)C12CCOCC2	-7.3%	i
COc1cc([C@@H]2CC=C(C(=O)O)CN2S(=O)(=O)c2ccc(C)cc2)cc(OC)c1OC	-13.9%	-4.8%
COc1ccc(C(=O)OCC(=O)c2ccc3c(c2)NC(=O)CO3)cc1[N+](=O)[O-]	-8.6%	-15.4%
CN(C)CCN1C(=O)C(=O)/C(=C(/O)c2ccc(F)cc2)C1c1ccccc1 (stereo unspecified)	-7.6%	·
COc1ccc(NC(=O)NC(C)C2CC3CCC2C3)cc1 (stereo unspecified)	-7.6%	i
CC/C(Cc1ccccc1)=N\NC(=O)c1cc(C)oc1C	2.2%	-7.7%
COCCn1ccc2c(OCC(=O)Nc3ccccc3F)cccc2c1=O	-4.9%	-7.4%
CCCOc1ccc(/C=C/C(=O)NCc2ccccc2)cc1	-1.9%	-8.0%
COc1cccc(C(c2nnnn2-c2ccc3c(c2)OCCO3)N2CCC3(CC2)C(=O)NCN3c2ccccc2)c1OC (stereo unspecified)	-12.7%	i
N/C(=N\OC(=O)CCCCCN1C(=O)c2ccccc2C1=O)c1ccccn1	-12.7%	i
Cc1ccc(OC(C)C(=O)Nc2ccc(C)c(S(=O)(=O)Nc3ccc(C)cc3C)c2)cc1 (stereo unspecified)	?	?
